Screening data deposited in PubChem by National Center for Advancing Translational Sciences (NCATS).
MARV entry inh: inhibitors of Marburg virus binding or cell entry; Marburg virus pseudotyped entry inhibition, cell reporter; control for the full effect not named in the record; about a third of the inactives were read at about 46 µM; Potency, µM (doses to about 37.8 µM), for the others: at the highest dose activity change, negative = inhibition, usual class: inhibitors; 300,000 compounds, 1.8% hits; active = well fitted inhibition curve with a large enough effect; inconclusive = small, poorly fitted or top-dose-only effect, or effect the other way; inactive = flat fitted curve, though single readings scatter; tested in HEK293 cells; about a fifth of its hits are not listed in these tables; further: on the % scale 0 is the no-effect control and ±100 the full control effect; luciferase read-out
NS1 function inh: influenza NS1 inhibition; AID 2326; S. cerevisiae slowed by influenza A NS1, growth recovery by OD600; 270,000 compounds, 0.4% hits; Potency, µM (titrated, usually from 46.1 µM), for inactives: top-dose activity, positive = more growth; active means well fitted rising curve with a large enough effect; inconclusive means small, poorly fitted or top-dose-only effect; inactive means no such curve, though single readings can be large or run the other way; further: nearly all actives have a fitted effect of over 50% in size
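Compounds were scored for reversing the slow growth caused by influenza A NS1 in S. cerevisiae, measured by optical density at 600 nm. Assay medium contained 2% galactose at pH 6.0; NS1-free yeast of the same strain were the positive control.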
RE007 growth inh: less growth of the S. pombe RE007 Vpr strain | S. pombe RE007 Vpr strain, BacTiter-Glo ATP luminescence, 24 h; control for the full effect not named in the record | Potency, µM (titrated, usually from 92.2 µM), for inactives: top-dose activity change, negative = less growth | 360,000 compounds, 0.21% hits; active = well fitted falling curve with a large enough effect; inconclusive = small, poorly fitted or top-dose-only effect; inactive = no such curve, though single readings can be large or run the other way;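 further: on the % scale 0 is the no-effect control and ±100 the full control effect; nearly all actives have a fitted effect of over 50% in size; the assay follows cell death caused by Vpr and the record does not say whether a fall means rescue or toxicity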
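Fission yeast strain RE007, carrying one chromosomally integrated HIV-1 vpr copy, was seeded at OD 0.01 in PMG+AL medium with 23 nL pinned compound. After 24 h at 30 °C and 99% humidity, viability was read by BacTiter-Glo luminescence.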
SARS PLpro yeast: blocks SARS-CoV papain-like protease in a yeast assay | S. cerevisiae expressing SARS-CoV PLpro, growth rescue; control for the full effect not named in the record | Potency, µM (titrated, usually from 32.9 µM), for inactives: at the top dose activity, positive = growth rescue | 330,000 compounds, 0.19% hits | AID 485353; active means well fitted rising curve with a large enough effect; inconclusive means small, poorly fitted or top-dose-only effect; inactive means no such curve, though single readings can be large or run the other way; further: 0% is about no effect; nearly all actives have a fitted effect of over 55% in size; growth read by luminescence after 48 h
Cruzain inh Det: blocks cruzain activity in presence of Triton detergent; 200,000 compounds, 0.43% hits; Potency, µM, inactives show max response, negative = inhibition, most hits filed as inhibitors; purified cruzain, Z-FR-AMC fluorescence, 0.01% Triton; P25779;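 further: plate controls were neutral wells for no effect and buffer without enzyme for full effect; nearly all actives have a fitted effect of over 40% in size; top concentration of the series not given in the record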
Target sequence (P25779 123-467 limits assumed): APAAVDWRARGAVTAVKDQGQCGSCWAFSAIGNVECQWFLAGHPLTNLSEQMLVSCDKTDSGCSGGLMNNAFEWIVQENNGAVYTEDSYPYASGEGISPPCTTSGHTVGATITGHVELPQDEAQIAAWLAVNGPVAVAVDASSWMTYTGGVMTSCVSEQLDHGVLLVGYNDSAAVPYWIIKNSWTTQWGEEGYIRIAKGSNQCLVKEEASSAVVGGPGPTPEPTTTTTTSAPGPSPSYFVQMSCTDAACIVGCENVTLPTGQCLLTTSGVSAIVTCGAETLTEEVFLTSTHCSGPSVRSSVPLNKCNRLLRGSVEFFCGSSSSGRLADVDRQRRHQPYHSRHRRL
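Detergent-containing run (0.01% Triton X-100) in acetate buffer pH 5.5 with 5 mM DTT: enzyme at 1.5 nM final, 15 min compound preincubation at room temperature, then 2 uM Z-FR-AMC substrate. Activity taken as 60 s fluorescence increase at 360/450 nm.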
Lassa entry inh: blocks Lassa virus binding to or entry into cells | 300,000 compounds, 1.2% hits | AID 540256 | Lassa virus pseudotype entry inhibition, cell reporter; control for the full effect not named in the record | Potency, µM (doses to about 37.9 µM), inactives show at the highest dose activity change, negative = inhibition, actives largely listed as inhibitors; active means well fitted inhibition curve with a large enough effect; inconclusive means small, poorly fitted or top-dose-only effect, or effect the other way; inactive means flat fitted curve, though single readings scatter; tested in HEK293 cells; further: on the % scale 0 is the no-effect control and ±100 the full control effect; nearly all actives have a fitted effect of over 50% in size; luciferase read-out
Cruzain noTriton: inhibitors of Trypanosoma cruzi cruzain without detergent; P25779; purified cruzain, Z-FR-AMC fluorescence, no detergent; Potency, µM, inactives show max response, negative = inhibition, usual class: inhibitors; 200,000 compounds, 2.3% hits; AID 1476;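 further: plate controls were enzyme without inhibitor for no effect and buffer without enzyme for full effect; nearly all actives have a fitted effect of over 40% in size; top concentration of the series not given in the record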
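Detergent-free condition (0.00005% Triton X-100) in acetate buffer pH 5.5 with DTT. 1.5 nM enzyme and compound were pre-mixed 15 min, then 2 uM Z-FR-AMC substrate added; reaction progress from fluorescence change between first and third reads (60 s).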
StopGo reporter: lowers the luciferase signal of an FMDV 2A StopGo reporter; Potency, µM (highest dose often 57.9 µM), without a hit: at the top dose signal change, negative = less light; AID 1159524; human cells with a luciferase reporter of 2A StopGo recoding; control for the full effect not named in the record; 410,000 compounds, 1.2% hits; active = well fitted falling curve with a large enough effect; inconclusive = small, poorly fitted or top-dose-only effect; inactive = no such curve, though single readings can be large or run the other way; tested in HEK293T cells; further: on the % scale 0 is the no-effect control and ±100 the full control effect; nearly all actives have a fitted effect of over 45% in size; luciferase light after 4 h
* marks the source's active call; other numbers are inactive results; ? = inconclusive; · = not tested or not shown; & = joins results of further samples; [ ] = dose if it differs, or a comment. Unless noted, the call rests on the fitted dose curve; in most records, active means well fitted curve in the direction sought with a large enough effect; inconclusive means small, poorly fitted or top-dose-only effect, or another doubt; inactive means no such curve, though single readings can be large; an effect the other way counts as inactive or inconclusive. Potency means the concentration at half of the fitted maximal effect. Rows are unselected; any-hit rate near 4.7%.

SMILES	MARV entry inh	NS1 function inh	RE007 growth inh	SARS PLpro yeast	Cruzain inh Det	Lassa entry inh	Cruzain noTriton	StopGo reporter
CC(C)(C)NC(=O)CSc1ncnc2c1nnn2Cc1ccccc1Cl	?	0%	-9%	2%	-2.1%	18µM*	6%	?
CC(C)(C)c1ccc(C(=O)NCCCn2ccnc2)cc1	9%[46.1 µM]	17%	2%	1%	·	-8%[46.1 µM]	·	2%
NCCc1nnc(SCc2ccccc2F)o1	16%	9%	-14%	0%	-0.8%	-4%	-3%	-2%
Cc1ccccc1NC(=O)Cc1ccccc1	?	-2%	12%	-4%	1.7%	4%	5%	-2%
CCn1c(SCC(=O)c2ccc([N+](=O)[O-])cc2)nnc1-c1ccc(Cl)cc1	19%[46.1 µM]	·	·	·	-2.1%	7%[46.1 µM]	-11%	-22%
CCN(CC)CCSc1nnc2c3ccccc3n(Cc3ccccc3)c2n1	·	13%	-6%	4%	·	·	·	-30%
O=C(CN(c1ccccc1)S(=O)(=O)c1ccc(F)cc1)NC1CCCCCC1	?	1%	-11%	0%	·	-19%	·	-12%
COCCN(C(=O)c1csnn1)C(C(=O)NC1CCCCC1)c1ccccc1F (stereo not given)	-11%[46.1 µM]	0%	0%	9%	·	-25%	·	1%
Cc1n[nH]c(C)c1CCCCOc1ccccc1	-21%[46.1 µM]	·	2%	?	·	10%	·	?
O=C(O)c1cccnc1SCC(=O)C12CC3CC(CC(C3)C1)C2	-2%[46.1 µM]	0%	?	-1%	·	22%[46.1 µM]	·	-11%
CN1CCN(CC(=O)Nc2sc3c(c2C(=O)Nc2ccccc2)CCCC3)CC1	·	7%	-10%	2%	·	·	·	-2%
CC(=O)Nc1cccc(NC(=O)CCN2C(=O)c3ccccc3S2(=O)=O)c1	0%	·	-5%	?	·	16%	·	-16%
COc1ccc(C)cc1NC(=O)c1nn(C)cc1Br	·	-41%	-4%	-2%	·	·	·	-10%
CCC1CN(CC(=O)NCc2cccc(Br)c2)c2ccccc2S1 (stereo not given)	·	·	·	·	-9.6%	8%[46.1 µM]	1%	-14%
Cc1ccsc1CN(C(=O)COc1ccc(Cl)cc1)C1CCS(=O)(=O)C1 (stereo not given)	-1%[46.1 µM]	·	·	·	-5.7%	-25%[46.1 µM]	1%	-16%
O=C(CCCCCn1c(=S)[nH]c2ccc(N3CCOCC3)cc2c1=O)NCc1ccccc1Cl	-9%	·	-4%	0%	·	?	·	-13%
O=c1c(Cc2ccccc2)c(O)c2cccc3c4c(n1c23)CCCC4	6%	0%	-15%	-2%	·	19%	·	-3%
Cc1ccc(S(=O)(=O)NC2CCCCCCC2)cc1	12%[46.1 µM]	-34%	-9%	-10%	·	?	·	41%[activator]
COc1ccc(C2CC(c3cccs3)=NN2C(=O)c2ccc(Br)o2)cc1 (stereo not given)	?	9%	-2%	2%	-8.0%	8%	?	-5%
COc1ccc(C2(C)NC(=O)N(CC(=O)Nc3ccc(Br)cc3F)C2=O)cc1OC (stereo not given)	?	6%	-3%	-2%	·	-7%[46.1 µM]	·	-6%
COc1ccc(-c2cc3ccccc3n2CC(O)CN2CCC(C)CC2)cc1 (stereo not given)	·	0%	-5%	-7%	·	·	·	6%
CCCCN(C(=O)COc1ccc(NC(C)=O)cc1)C1CCS(=O)(=O)C1 (stereo not given)	16%[46.1 µM]	10%	1%	0%	·	5%[46.1 µM]	·	-14%
COc1cccc(NC(CNS(=O)(=O)c2ccc(Cl)cc2)c2ccccc2)c1 (stereo not given)	?	·	·	·	-4.3%	?	?	-20%
CC(C)N(C(=O)c1ccccc1-c1ccccc1)C(C)C	-19%	-58%	19%	-13%	4.0%	-1%	-6%	?
CCC(=O)N1CCc2cc(S(=O)(=O)NC(C(=O)NCCc3ccc(OC)c(OC)c3)C(C)C)ccc21 (stereo not given)	3%[46.1 µM]	·	·	·	-5.3%	4%[46.1 µM]	2%	0%
CCC(Oc1ccccc1OC)C(=O)Nc1ccc2c(c1)OCCO2 (stereo not given)	-1%[46.1 µM]	-6%	-5%	-1%	·	21%[46.1 µM]	·	-9%
O=C(Nc1cc2c3c(c1)CC(=O)N3CCC2)c1ccccc1F	?	·	-13%	-2%	·	?	·	32%[activator]
Cc1cc(=O)oc2c1ccc1oc(/C(=N/O)c3ccccc3)c(C)c12	?	-48%	0%	-3%	-5.8%	?	2%	?
Cc1ccccc1N1CCN(C(=O)C2CCCCC2)CC1	-20%	-125%	-14%	-19%	-0.1%	-12%	0%	?
O=C(NCc1cccnc1)C1CCN(C(=O)c2ccc(Cl)cc2Cl)CC1	0%	-7%	3%	0%	2.5%	1%	-3%	-20%
Cc1cccc(C)c1NC(=O)CNC(=O)Cc1ccccc1[N+](=O)[O-]	3%[46.1 µM]	4%	7%	-6%	·	8%[46.1 µM]	·	7%
CSCC[C@H](NC(=O)CCn1nnc2ccccc2c1=O)C(=O)O	6%&6%	0%	6%	0%	2.6%	-27%	-5%	6%
N#Cc1ccccc1Cn1c(=O)n(-c2ccc(CC(=O)NCc3ccco3)cc2)c(=O)c2sccc21	·	20%	-1%	6%	-1.3%	·	1%	-5%
CCOC(=O)C1CCN(C(=O)c2sccc2Cl)CC1	5%	2%	1%	1%	·	6%	·	-4%
CC(=O)c1cnc2cc(-c3ccc(Cl)cc3)nn2c1C	?	-7%	-1%	-9%	-2.2%	-1%	-2%	28%
CCOC(=O)c1ccc(CSc2ncn[nH]2)o1	-3%	0%	10%	-3%	3.4%	10%	-4%	20%
Cc1cc(C)n2nc(SC(C)C(=O)NC3CCCCC3C)nc2n1 (stereo not given)	3%	·	-1%	3%	·	-4%	·	-8%
O=C(CSc1ccccc1)Nc1ccc(N2CCN(c3ccccc3)CC2)c(F)c1	-3%	3%	-11%	-14%	9.0%	5%	13µM*	-19%
Cc1ccc(C)n1NC(=O)c1ccc(O)cc1	-8%	11µM*	-15%	14%	5.7%	10%	-3%	·
O=C(CSc1nc2ccccc2s1)NCC1CCCO1 (stereo not given)	·	-1%	13%	?	·	·	·	9%
CCOC(=O)N1CCN(C(=O)CSCC(=O)Nc2nc(-c3ccccc3)cs2)CC1	?	-15%	-19%	9%	-2.0%	-25%	?	?
CC1CCc2c(sc3nnn(Cc4ccc(F)cc4)c(=O)c23)C1 (stereo not given)	-1%[46.1 µM]	·	·	·	-5.4%	-16%[46.1 µM]	6%	-23%
CN(C)c1ccc(C(=O)OCC(=O)c2cccs2)cc1	?	-4%	0%	7%	-5.9%	?	5%	-8%
CCN1CCN(C(=O)COc2ccc(S(=O)(=O)Nc3ccc(Cl)cc3)cc2)CC1	-19%	-6%	-17%	-5%	·	?	·	11%
Cc1nn(C(C)C(=O)NCc2ccccc2)c(C)c1[N+](=O)[O-] (stereo not given)	2%	2%	-5%	-3%	2.0%	-6%	11%	·
CCCOC1CCCN(C(=O)CCCn2nnnc2CN2CCOCC2)C1 (stereo not given)	24%[46.1 µM]	12%	-10%	3%	·	-1%[46.1 µM]	·	19%
O=C1CCCC2=C1C(c1cccs1)n1nc(SCc3ccccc3)nc1N2 (stereo not given)	-5%	-41%	6%	-2%	-0.9%	-3%	2%	?
Cc1nnc2sc(SCC(=O)Nc3nccs3)nn2c1=O	?	?	14%	18%	-3.8%	6%	4%	-4%
Cc1cc(OCCCN2CCN(Cc3ccccc3)CC2)ccc1[N+](=O)[O-]	·	0%	-11%	1%	·	·	·	-24%
O=C(CSc1nc2c([nH]c3ccccc32)c(=O)n1-c1cccc(Cl)c1)NCc1ccccc1	·	·	·	·	-3.2%	?	2%	-27%
O=C(Nc1ccccc1C(=O)NCC1CCCO1)c1ccccc1F (stereo not given)	-6%	-18%	1%	-1%	·	-7%	·	-8%
CC(=O)CSc1ccc(-c2nc3cc(C)c(C)cc3[nH]2)cn1	?	2%	-5%	0%	·	?	·	8.9µM*
O=C(CC(c1ccccc1)c1ccccc1)NCCO	1%	3%	-20%	3%	-0.2%	24%	-1%	-26%
Fc1ccc(COc2ccccc2-c2ccnc3ncnn23)cc1	·	-2%	-6%	1%	·	·	·	35%[activator]
COc1cc(C2CC(=O)Nc3ccccc3S2)cc(OC)c1OC (stereo not given)	?	-8%	3%	0%	4.1%	-7%	2%	-28%
CC(C)Cn1c(CCCNC(=O)c2ccco2)nc2ccccc21	·	-6%	-8%	-3%	·	·	·	-11%
C=CCOc1ccccc1/C=N/n1nnnc1N	0%	-28%	15%	23%	·	9%	·	-15%
O=C(CCCCn1c(=O)c2ccccc2n(Cc2ccc(Cl)cc2)c1=O)NCc1ccccc1Cl	?	·	·	·	0.1%	-8%[46.1 µM]	2%	-21%
O=C(Nc1ccc(-c2noc(COc3ccccc3Cl)n2)cc1)c1ccco1	?	-15%	-7%	-12%	-3.7%	?	?	3%
COc1ccc(C(=O)Nc2c3c(nn2-c2ccc([N+](=O)[O-])cc2)CS(=O)(=O)C3)cc1	·	9%	13%	-5%	·	·	·	-22%

Additional results follow.
SMILES	MARV entry inh	NS1 function inh	RE007 growth inh	SARS PLpro yeast	Cruzain inh Det	Lassa entry inh	Cruzain noTriton	StopGo reporter
O=C(CSc1ccc2c(c1)OCCO2)Nc1cccc(S(=O)(=O)N2CCCCC2)c1	7%	18%	22%	0%	-6.5%	11%	-6%	-19%
Cc1cccc(C(c2c(C)nn(-c3ccccc3)c2N)c2c(C)nn(-c3ccccc3)c2N)c1	?	2%	22%	0%	-5.2%	13%	3%	0%
CC(/C=N/n1c(-c2ccco2)n[nH]c1=S)=C\c1ccco1	?	-6%	-17%	-7%	-9.7%	-2%	0%	-24%
Cc1cc(C)nc(NC(C)(C)C(=O)O)n1	12%	2%	-17%	0%	·	-7%	·	-6%
CN(C)c1cccc(C(=O)NNC(=O)CSc2ccccc2)c1	3%[46.1 µM]	-10%	-17%	1%	·	-1%[46.1 µM]	·	2%
